HCMV NEC inh = disrupts HCMV UL50-UL53 complex binding; AID 1918969; 190,000 compounds, 0.15% hits; inhibition, % (test concentration not listed); HTRF UL50-UL53 interaction, normalized percent inhibition;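 active = both replicates at 50% or more, plus weaker picks with an unusually low signal ratio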;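 note: stock transfer was 100 nL into about 20 µL; 0% = negative control wells and 100% = wells with untagged competitor protein; inactives centre near -12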
GIV-Gai inh = blocks GIV peptide binding to rat Galpha-i3 | P08753 | Galpha-i3/FITC-GIV peptide fluorescence polarization, 90 min; hits give low values; scaled: aluminum fluoride 0%, vehicle 100% | percent of control (FP), % (test concentration not listed) | 210,000 compounds, 0.42% hits;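 active = replicate mean at 85% of control or lower, very high polarization wells dropped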;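 note: wells of about 15 µL received 100 nL stock; the first replicate is given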
Target sequence (P08753 whole entry, looked up): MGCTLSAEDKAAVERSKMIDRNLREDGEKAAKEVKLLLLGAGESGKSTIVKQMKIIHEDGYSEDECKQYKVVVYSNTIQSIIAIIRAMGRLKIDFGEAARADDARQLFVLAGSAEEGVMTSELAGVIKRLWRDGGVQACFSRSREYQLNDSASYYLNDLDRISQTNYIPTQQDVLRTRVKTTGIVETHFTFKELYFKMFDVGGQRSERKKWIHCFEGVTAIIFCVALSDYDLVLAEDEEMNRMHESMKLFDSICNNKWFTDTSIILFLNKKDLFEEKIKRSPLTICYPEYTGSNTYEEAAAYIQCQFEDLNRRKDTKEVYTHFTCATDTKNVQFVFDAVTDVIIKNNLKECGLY
Sa growth 42C = S. aureus growth inhibition. 170,000 compounds, 0.53% hits. S. aureus RN4220 growth, OD600, 20 h, 42 °C; hits give low values. relative growth, % (test concentration not listed). AID 720641;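 active = growth at 42 °C up to 50% and 20 or more points under that at 30 °C, or under 10% at both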;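 note: 300 nL library stock went into each well; scaled to the means of positive and negative controls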
Sa growth 42C second temp = further read-out of Sa growth 42C, marked with its call; relative growth, %; measured here: growth at 30 °C;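 optical density after 20 h as mean of two plates; 100% = untreated growth and lower means inhibition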
The depositor's hits bear a star; . = not tested or not shown; & = joins results of further samples.

SMILES | HCMV NEC inh | GIV-Gai inh | Sa growth 42C | Sa growth 42C second temp
Cc1nc2nc(Cc3cccc(F)c3)nn2c(NCc2ccc3c(c2)OCO3)c1C | 4 | 108 | . | .
CCOc1ccccc1-c1nnc(CS(=O)(=O)c2ccccc2)o1 | -6 | 101 | 85 | 88
C=CCN1C(=O)c2ccc(C(=O)OCc3cn4ccccc4n3)cc2C1=O | -69 | . | 87 | 93
CC(=O)N(CCc1ccc(C)[n+]([O-])c1)c1ccccc1 | -9 | . | 85 | 83
CCCn1ccc2c(OCC(=O)NCc3ccc(F)cc3)cccc2c1=O | . | 104 | 109 | 82
CCOC(=O)c1cccc(NC(=O)Nc2c(C)n(C)n(-c3ccccc3)c2=O)c1 | 19 | 107 | 100 | 94
CCOC(=O)/C(Br)=N\Nc1ccc(C)cc1 | -32 | 97 | 96 | 78
CC(C)(CO)NCc1ccc(-c2ccc(Cl)cc2)o1 | -19&-11 | 101&107 | 99 | 89
O=C(Nc1cccc(C(=O)OCc2cc(=O)n3c4c(sc3n2)CCCC4)c1)c1cccc(F)c1 | . | 98 | 94 | 84
O=C(CCc1ccccc1)NCCCN1CCOCC1 | -11 | 109 | 76 | 84
COc1cnn(-c2ccccc2)c(=O)c1N(C)C | -34 | 108 | 106 | 98
CCOC(=O)c1c(C)c(-c2ccccc2)n(CC(=O)NCc2ccco2)c1C | -4 | 105 | 115 | 101
O=C(Nc1ccc(S(=O)(=O)N2CCc3ccccc32)cc1)c1ccccc1 | -1 | . | 118 | 107
Cc1ccc(-c2ccn(-c3ccc(C)c(Cl)c3)c(=S)n2)cc1 | -2 | 101 | 100 | 97
CCc1nnc(NC(=O)c2nnn(-c3cccc(C(F)(F)F)c3)c2C)s1 | . | 103 | 98 | 83
O=C(CCCSc1nc2cc(Cl)ccc2c(=O)n1Cc1ccco1)N1CCOCC1 | -24 | . | 95 | 58
Cc1onc(-c2ccccc2)c1CNC(=O)NC1CCN(C(=O)OCc2ccccc2)CC1 | -39 | 97 | 81 | 86
CCN1C(C(=O)c2ccccc2)=C(NC(=O)c2ccccc2)c2ccccc2S1(=O)=O | -4 | 55* | 96 | 93
CC(C)CN[C@H]1CS(=O)(=O)C[C@@H]1S(=O)(=O)c1ccc(F)cc1 | -19 | 101 | . | .
CCOC(=O)C1CCN(/C=C(\C#N)S(=O)(=O)c2ccc(Cl)cc2)CC1 | -20 | 111 | 98 | 93

Sorted by molar mass (smallest number first): some entries from above
SMILES | HCMV NEC inh | GIV-Gai inh | Sa growth 42C | Sa growth 42C second temp
COc1cnn(-c2ccccc2)c(=O)c1N(C)C | -34 | 108 | 106 | 98
O=C(Nc1ccc(S(=O)(=O)N2CCc3ccccc32)cc1)c1ccccc1 | -1 | . | 118 | 107
CCOC(=O)c1c(C)c(-c2ccccc2)n(CC(=O)NCc2ccco2)c1C | -4 | 105 | 115 | 101
CCc1nnc(NC(=O)c2nnn(-c3cccc(C(F)(F)F)c3)c2C)s1 | . | 103 | 98 | 83
CCN1C(C(=O)c2ccccc2)=C(NC(=O)c2ccccc2)c2ccccc2S1(=O)=O | -4 | 55* | 96 | 93
O=C(CCCSc1nc2cc(Cl)ccc2c(=O)n1Cc1ccco1)N1CCOCC1 | -24 | . | 95 | 58

Next results
SMILES | HCMV NEC inh | GIV-Gai inh | Sa growth 42C | Sa growth 42C second temp
O=C(c1cccc(-c2noc(C3CCC3)n2)c1)N1CCc2ccccc21 | -21 | 102 | . | .
COc1c(F)c(F)c(C(=O)O)c(Nc2ccccc2)c1F | -11 | 98 | 99 | 83
CC(C)Cn1cc(NC(=O)N2CCC(c3ccccc3)C2)c2ccccc2c1=O (stereo not given) | -11 | 99 | 113 | 87
CC(=O)N1CCN(c2ccccc2F)CC1 | 9 | 101 | 87 | 117
COc1cc(CC(=O)Nc2nc3ccc(S(N)(=O)=O)cc3s2)cc(OC)c1OC | -3 | . | 114 | 97
CCOc1ccc(NC(=O)CSc2nc3ccccc3c(=O)n2C2CC2)cc1 | 6 | 98 | 96 | 90
COc1ccc(NC(=O)C2CCCN(c3nc4cccnc4s3)C2)cc1 (stereo not given) | -33 | 106 | . | .
COc1cc(C2C3=C(CC(c4ccccc4)CC3=O)Nc3ccccc3N2C(=O)CCC(=O)O)cc(OC)c1OC (stereo not given) | -2 | 114 | . | .
CCNc1nc(NCC)nc(OCCOC(=O)Nc2ccccc2)n1 | -15 | 99 | . | .
Cc1nn(C)c(C)c1NC(=O)Nc1ccccc1 | 7 | 109 | 99 | 95
CCc1ccc(NC(=O)C2CCN(S(=O)(=O)c3ccc4[nH]c5c(c4c3)CCCCC5)CC2)cc1 | . | 102 | 97 | 94
O=c1[nH]c2ccc(S(=O)(=O)NCc3cccn3Cc3ccccc3F)cc2o1 | -17 | 109 | . | .
O=C(NCCc1c[nH]c2ccccc12)NC1CC(=O)N(c2ccccc2)C1 (stereo not given) | -16 | 98 | 98 | 93
COc1cccc(CNC(=O)C2=NNC(=O)CC2)c1 | -17 | . | 88 | 86
CC(C)NC(=O)CSc1nnc(SCC(=O)NC(C)C)s1 | -22 | . | 82 | 96
CCCCn1c2ccc(Cl)cc2c2nc3ccccc3nc21 | -9 | 103 | 100 | 90
Cc1ccc(NC(=O)C2C(c3ccccc3)C=CC(c3ccccc3)C2C(=O)O)cc1C (stereo not given) | -2 | . | 168 | 100
CCc1ccc(NS(=O)(=O)c2cc(-c3ccc(=O)n(-c4c(C)noc4C)n3)ccc2C)cc1 | -37 | 110 | . | .
CC(=O)c1ccc(N=C(C)c2sc3ccccc3c2O)cc1 | -20 | 133 | . | .
Cc1[nH]c(C(=O)N2CCC(CC(=O)NC(C)c3ccccc3)CC2)c(C)c1C(=O)OC(C)C (stereo not given) | -16 | 104 | . | .
CCc1ccc(C2c3c(-c4cc(C)ccc4O)n[nH]c3C(=O)N2CCO)cc1 (stereo not given) | -32 | 101 | 93 | 87
O=C(Nc1ccccc1)c1cccc(=O)o1 | -87 | 95 | 94 | 79
Cc1cccc(C2=NN3C(=O)c4ccccc4C3C2)c1 (stereo not given) | -40 | 102 | 98 | 77
COC(=O)c1c(C(=O)OC)c(C)n(Cc2cccnc2)c1C | -7 | 108 | 102 | 101
c1ccc(CCn2nnc3ccccc32)cc1 | . | 99 | 103 | 95
Fc1cccc(-c2nn3c(-c4ccccn4)nnc3s2)c1 | -18 | 110 | . | .
COCCNC(=O)c1cc2c(=O)n3cccc(C)c3nc2n(Cc2cccnc2)c1=N | -27 | 110 | 109 | 102
COc1ccc(CCNC(=O)Cn2c(=O)n(CCc3ccccc3)c(=O)c3c(C)c(C)sc32)cc1OC | -1 | 110 | 109 | 76
N#Cc1ccc(COC(=O)CCc2nc(N)nc(Nc3ccccc3)n2)cc1 | -13 | . | 76 | 91
Cn1c(C(=O)O)c(CC(=O)Nc2cnc3ccccc3c2)c2ccccc21 | . | 106 | 98 | 81
COc1cc(OC)c(NC(=O)c2[nH]c(C)c(S(=O)(=O)N3CCCC3)c2C)cc1Cl | -25 | 102 | . | .
O=C(CSc1ccccn1)N1CCN(S(=O)(=O)c2ccccc2)C1 | . | 104 | 130 | 91
Cc1ccc(-c2c(C(=O)N3CCC(C)CC3)oc(=O)c3ccccc23)cc1 | -24 | 102 | . | .
CN(C(=O)C1CCCC1)c1c(N)n(Cc2ccccc2)c(=O)[nH]c1=O | -7 | . | 86 | 92
Cc1ccc(-n2nc(C(=O)N3CCCC3)nc2-c2ccccc2)cc1 | 6 | 109 | . | .
Cc1cc(SCC(=O)NN)c(C)cc1Cl | 16 | 106 | 107 | 110
Cc1cccc(N2C(=O)CC(SCc3nc4ccccc4[nH]3)C2=O)c1 (stereo not given) | -1 | 103 | 92 | 86
Cc1cccc(NC(=O)COC(=O)c2ccco2)c1 | 10 | . | 103 | 97
Nc1nc2c(c(=O)[nH]1)C(c1ccccc1Br)CC(=O)N2 (stereo not given) | -16 | 105 | . | .
CCN(C(=O)CSc1ccc2ccccc2n1)C1CCS(=O)(=O)C1 (stereo not given) | -28 | . | 98 | 96

Molecules listed so far that contain a cyano group:
SMILES | HCMV NEC inh | GIV-Gai inh | Sa growth 42C | Sa growth 42C second temp
CCOC(=O)C1CCN(/C=C(\C#N)S(=O)(=O)c2ccc(Cl)cc2)CC1 | -20 | 111 | 98 | 93
N#Cc1ccc(COC(=O)CCc2nc(N)nc(Nc3ccccc3)n2)cc1 | -13 | . | 76 | 91

The listing continues.
SMILES | HCMV NEC inh | GIV-Gai inh | Sa growth 42C | Sa growth 42C second temp
COc1cccc(N2CCN(c3ncc4c(n3)CCN(Cc3ccc(Br)cc3)C4)CC2)c1 | . | 103 | 94 | 94
NC(=O)c1c(NC(=O)Cn2cnc3c(cnn3-c3ccccc3)c2=O)sc2c1CCC2 | 2 | . | 77 | 99
Cc1c(Cl)cccc1NC(=O)CSc1nc(-c2ccccc2)no1 | -2 | 104 | . | .
CCOC(=O)CN1C(=O)/C(=c2\sc3nc4ccccc4n3c2=O)c2ccccc21 | -23 | 104 | 85 | 85
CN(C)S(=O)(=O)c1cccc(CSc2nnc(-c3c[nH]c4ccccc34)o2)c1 | -21 | . | 71 | 65
COc1ccc(OCC(NS(=O)(=O)c2ccc(-n3cnnn3)cc2)C(C)C)cc1 (stereo not given) | -2 | 102 | 107 | 88
CCOC(=O)c1[nH]c(C)c(C(=O)N2CCCC(C)C2)c1C (stereo not given) | -32 | 106 | 100 | 86
O=C(O)CCCc1c(-[n+]2ccccc2)[nH]c2ccccc12 | . | 104 | 93 | 86
O=C(Cn1c(=O)n(-c2ccc(F)cc2)c(=O)c2sc3ccccc3c21)NC1CCCC1 | -30 | 97 | 109 | 90
COc1ccc(OC)c(S(=O)(=O)N2CCCC2)c1 | -34 | 100 | 84 | 87
Cc1cc(C)c(C(=O)c2ccc(C(=O)N(C)C)cc2)c(C)c1 | -2 | 102 | 94 | 122
CN1C(C(=O)c2ccccc2)=C(NC(=O)c2ccccc2Br)c2ccccc2S1(=O)=O | -31 | 92 | 100 | 85
CCCCOc1ccc(C(=O)N2CC(=O)Nc3ccc(Br)cc3C2c2ccc(F)cc2)cc1 (stereo not given) | -10 | 105 | 80 | 87
O=c1[nH]c(-c2ccccc2)nc(=S)[nH]1 | -8 | 101 | 89 | 84
O=CNc1c(O)c2ccccc2oc1=O | -43 | 103 | 70 | 86
CCN(CC)S(=O)(=O)c1ccc(C(=O)NCCSc2c(-c3ccccc3)[nH]c3ccccc23)cc1 | -7 | 107 | 103 | 102
O=C1/C(=C/c2cn(-c3ccccc3)nc2-c2cccs2)SC(=S)N1C1CCS(=O)(=O)C1 (stereo not given) | -18 | 94 | . | .
O=C(c1ccc(CN2CCc3ccccc3C2)cc1)N1CCCCCC1 | . | 107 | 105 | 82
Cc1ccc(N2C(=O)CN(Cc3ccccc3Cl)[C@H]3CS(=O)(=O)C[C@H]32)cc1 | -33 | 104 | . | .
COc1ccc(C2C(C#N)=C(N)Oc3n[nH]c(-c4cccc([N+](=O)[O-])c4)c32)cc1OC (stereo not given) | -43 | 105 | . | .
Cc1ccccc1C(=O)N1N=C(c2ccc(Br)cc2)CC1c1nc2ccccc2[nH]1 (stereo not given) | . | 98 | 111 | 91
c1ccc(NNc2nncc(-c3ccccc3)n2)cc1 | -71 | 98 | 99 | 63
CC1=C/C(=N\N=C2\NC(=O)C(CC(=O)Nc3ccccc3)S2)CC(C)(C)C1 (stereo not given) | -15 | 97 | 65 | 37
Cc1ccc(C)c(CN2C(=O)C(O)(c3c(C)[nH]c4ccccc34)c3ccccc32)c1 (stereo not given) | -16 | 103 | 98 | 89
FC(F)(F)c1cnc(-n2ccc3ccccc32)c(Cl)c1 | -18 | 103 | . | .
Cc1ccc(-n2nc(C(=O)N(C)c3ccc(C)c(C)c3)c3c4ccccc4n(C)c3c2=O)cc1 | -12 | 101 | 104 | 91
Cc1ccc(Cl)cc1N1CCN(CCCNC(=O)Cn2ncc3ccsc3c2=O)CC1 | . | 102 | 106 | 98
CC(C)CC(=O)Nc1cc2c(cc1SC1CCCCC1)n(C)c(=O)n2C | -32 | 99 | . | .
O=C(NCCn1c(-c2ccncc2)nc2cccnc21)Nc1ccc(Br)cc1 | -16 | 94 | . | .
CN=c1scc(C)n1/N=C(\C)c1cccc(F)c1 | -32 | . | 68 | 72
COc1ccc(NC(=O)c2nnn(CC(=O)Nc3cccc(C)c3C)c2N)c(OC)c1 | . | 102 | 96 | 86
O=C(NCc1cccc(Cl)c1)c1cccn1-c1nnc(N2CCCC2)s1 | . | 99 | 88 | 83
Cc1c(Cl)cccc1Nc1nn2c(=O)c3ccccc3nc2s1 | . | 100 | 113 | 90
CCn1nc(C)c(Br)c1-c1nc(-c2cccs2)no1 | 6 | 109 | 111 | 102
Cn1c(=O)c2c(-c3ccc(Br)cc3)n3c(c2n(C)c1=O)COCC3 | -1 | 101 | . | .
COc1ccc(OC)c(CN2C(=O)CCC2(C)C(=O)NCCc2ccc(OC)c(OC)c2)c1 (stereo not given) | -3 | 109 | 93 | 97
O=C(O)CCCSc1ccc(Cl)cc1 | -15 | . | 103 | 91
O=C(Cn1c(=O)[nH]c2c(-c3ccc(F)cc3)c[nH]c2c1=O)NCc1cccnc1 | -4 | 98 | . | .
CC(C)NC(=O)c1cc(Br)c(Br)s1 | -1 | . | 104 | 72
Cc1nc2c(-c3ccccc3)c(C)nn2c(C)c1CCC(=O)NCc1ccc(F)cc1 | -37 | 100 | 99 | 92

Source: PubChem
